# Methyltransferases – Primary Screen for Target Class Profiling of Small Molecule Inhibitors of Methyltransferases. calls only at 40 µM. purified enzyme, MTase-Glo SAH luminescence; hits give low values. 25,000 compounds, 3.9% hits; active = -50% or lower on at least one of six enzymes; inconclusive = the cases between; inactive = as a rule above -30% on all six;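 note: enzymes were COMT GAMT GNMT HNMT NNMT and PNMT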
#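 Each enzyme was assayed with SAM and its substrate. SAH formation detected by MTase-Glo luminescence; single-point 40 uM screen[…].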
# Calls only; i = inactive; u = inconclusive; + = active, no number; ! = not confirmed by another sample. % is set by controls: 0 for no effect and ±100 for the full control effect. Some of the compounds tested; count on the stated rates, not on these rows.
SMILES,Methyltransferases
CCCn1c(=O)c2ccc(Cl)cc2n2c(=O)n(CC(=O)Nc3ccc(OC)cc3)nc12,i
COc1ccc(CCC(=O)N2CCCCCC2CN2CCC(OC)CC2)cc1 (stereo unspecified),i
O=S(=O)(Cc1cccc(Cl)c1)NCCc1noc(-c2ccccc2)n1,i
Cn1cc(-c2cc(=O)c3ccnc(NCc4ccc(F)cc4)c3o2)cn1,i
CC1=C2C(=O)C=C(CO[C@@H]3O[C@H](CO)[C@@H](O)[C@H](O)[C@H]3O)[C@@H]2[C@H]2OC(=O)[C@H](C)[C@@H]2CC1,i
COc1cccc(CN2CCC(n3cc[nH]c3=O)CC2)c1,i
CN(Cc1cccc(C(F)(F)F)c1)C(=O)CC1CCCC1,i
COc1ccc(CN2C(=O)c3cc4sccc4n3CC2(C)C(=O)NC2CCCCC2)cc1OC (stereo unspecified),i
O=C(Cc1ccccn1)N1CCCC(C(=O)N2CCC(N3CCCC3=O)CC2)C1 (stereo unspecified),i
CC1(CCC(=O)O)C(=O)C=CC23CC4CC(OC4(C)C2O)C13 (stereo unspecified),i
CN(C)CC[C@H](CSc1ccccc1)Nc1ccc(S(=O)(=O)NC(=O)c2ccc(N3CCN(Cc4ccccc4-c4ccc(Cl)cc4)CC3)cc2)cc1[N+](=O)[O-],+
COc1ccc(-c2n[nH]n3c2nc(=O)c2ccc(C(=O)NCc4ccccc4OC)cc23)cc1,i
CCc1cc2c(cc3n2CC(C)(C(=O)NC2CCCCC2)N(CCc2ccccc2)C3=O)s1 (stereo unspecified),i
CC(C)c1noc(-c2cn(C3CCN(C(=O)C4(c5ccccc5)CC4)CC3)nn2)n1,i
CCOC(=O)c1ccc2c(c1)[C@@H]1C=CC[C@@H]1[C@H](c1ccccc1Br)N2,i
COC(=O)[C@]1(Cc2ccc(O)c(CC=C(C)C)c2)OC(=O)C(O)=C1c1ccc(O)cc1,i
CCOC(=O)c1cc2n(n1)CC(C)(C(=O)NCCCOC)N(c1ccc(Cl)cc1)C2=O (stereo unspecified),i
CNC(=O)[C@@H]1C[C@@H](O)CN1C1CCN(C(=O)C2(c3ccccc3)CC2)CC1,i
Cc1cnc(C2CC2)n1C1CCN(C(=O)C2CC2)CC1,u
Cc1cccc(CSc2nnc3n(CC(C)C)c(=O)c4cc(F)ccc4n23)c1,i
CC1(O)CCCC2(C)C1CCC13CC(CO)C(CCC12)C3 (stereo unspecified),i
COc1ccc2cc3n(c2c1)CC(C)(C(=O)NC1CCCCC1)N(Cc1ccco1)C3=O (stereo unspecified),i
COc1ccc(CN2C(=O)c3cc4ccccc4n3CC2(C)C(=O)NCc2ccccc2)cc1 (stereo unspecified),i
S=C(c1ccc(-c2ccc(Cl)c(Cl)c2)o1)N1CCCCC1,u
c1ccc(Cn2cc(CN3CCN(c4ccncc4)CC3)c(-c3cc4ccccc4o3)n2)cc1,+

# Molecules shown so far that contain a halogen:
SMILES,Methyltransferases
CCCn1c(=O)c2ccc(Cl)cc2n2c(=O)n(CC(=O)Nc3ccc(OC)cc3)nc12,i
O=S(=O)(Cc1cccc(Cl)c1)NCCc1noc(-c2ccccc2)n1,i
Cn1cc(-c2cc(=O)c3ccnc(NCc4ccc(F)cc4)c3o2)cn1,i
CN(Cc1cccc(C(F)(F)F)c1)C(=O)CC1CCCC1,i
CN(C)CC[C@H](CSc1ccccc1)Nc1ccc(S(=O)(=O)NC(=O)c2ccc(N3CCN(Cc4ccccc4-c4ccc(Cl)cc4)CC3)cc2)cc1[N+](=O)[O-],+
CCOC(=O)c1ccc2c(c1)[C@@H]1C=CC[C@@H]1[C@H](c1ccccc1Br)N2,i
CCOC(=O)c1cc2n(n1)CC(C)(C(=O)NCCCOC)N(c1ccc(Cl)cc1)C2=O (stereo unspecified),i
Cc1cccc(CSc2nnc3n(CC(C)C)c(=O)c4cc(F)ccc4n23)c1,i
S=C(c1ccc(-c2ccc(Cl)c(Cl)c2)o1)N1CCCCC1,u

# Continuation:
SMILES,Methyltransferases
COc1ccccc1C(=O)N(Cc1ccco1)S(=O)(=O)c1ccc2c(c1)n(C)c(=O)n2C,i
CC1OC(OC2CCC3(C)C(CCC4(C)C3C=CC35OCC6(CCC(C)(C)CC63)CCC45C)C2(C)CO)C(OC2OC(CO)C(O)C(O)C2O)C(O)C1OC1OC(CO)C(O)C(O)C1O (stereo unspecified),i
CCOc1ccc(S(=O)(=O)NCCn2c(C(F)(F)F)nc3ccccc32)cc1,i
Cc1ccncc1C(=O)N1CC[C@@H]2CN(S(C)(=O)=O)[C@@H]2C1,i
CC1OC(OC2C(OC(=O)[C@]34CCC(C)(C)C[C@H]3C3=CCC5[C@@]6(C)CC[C@H](OC7OC(C(=O)O)C(O)C(O)C7O)C(C)(C)C6CC[C@@]5(C)[C@]3(C)CC4O)OC(CO)C2O)C(O)C(O)C1OC1OCC(O)C(O)C1O (stereo partly specified),+
Cc1nc(CCNC(=O)[C@H]2CCC[C@H](O)C2)nc2c1CCC2,i
CCOCCCNC(=O)C1c2c(n(C)c3ccccc23)SCC(=O)N1c1cccc(Cl)c1C (stereo unspecified),i
N#Cc1ccc(-c2csc(NN=C3CCCC3)n2)cc1,+!
CN(CCN1C(=O)c2cc3occc3n2CC1(C)C(=O)NC1CCCCCC1)C1CCCCC1 (stereo unspecified),i
CCCn1c(=O)c2ccc(C(=O)NC(C)CC)cc2n2c(=O)n(CC(=O)Nc3cccc(Cl)c3)nc12 (stereo unspecified),i
CCOc1ccccc1CNC(=O)c1cc2n(n1)CC(C)(C(=O)NC1CCCC1)N(CC)C2=O (stereo unspecified),i
CCCOc1ccc(CN2C(=O)c3cc4oc(C)cc4n3CC2(C)C(=O)NC2CCCCCC2)cc1 (stereo unspecified),i
COc1ccc(CN[C@H]2CC(C)(C)[C@@H]3C[C@@](C)(O)CC[C@]23CCC(=O)NCc2ccco2)cc1,i
c1ccc(COc2ccc(CN3CCN(C4CCNC4)CC3)cc2)cc1 (stereo unspecified),i
Cc1cc(C)cc(NC(=O)c2cc3n(n2)CC(C)(C(=O)NC2CCCCCC2)N(C)C3=O)c1 (stereo unspecified),i
CC(C)N(C(=O)c1ccccc1-c1ccc(CS(C)(=O)=O)cn1)C(C)C,i
O=C(NC[C@H]1O[C@@H](Cc2nc(-c3ccc(OC(F)(F)F)cc3)no2)[C@H](O)[C@@H]1O)C1CC1,i
CC(C)CNC(=O)c1ccc2c(=O)n(C(C)C)c3nn(CC(=O)Nc4ccc(C(C)C)cc4)c(=O)n3c2c1,i
C/C(=C\CO)CC/C=C(\C)C(=O)O[C@H]1[C@H](OC2OC=C(C(=O)O)C3CCC(C)(O)C23)O[C@H](CO)[C@@H](O)[C@@H]1O (stereo partly specified),i
CCCn1c(=O)c2ccc(C(=O)NCC(C)C)cc2n2c(SCC(=O)Nc3ccccc3F)nnc12,i
Cc1cnn(CCC(=O)N2CCCC(c3nnc(Cn4ccnc4)n3C)C2)c1 (stereo unspecified),i
CO[C@@H](Cc1ccc(OCCc2nc(-c3ccccc3)oc2C)c2ccsc12)C(=O)O,i
O=C([C@@H]1CCCN1C(=O)Cn1ccc2ccccc2c1=O)N1CCOCC1,i
O=C(C1CC1)N1CCOc2ccc(CN3CCCC3)cc2C1,i
CC1(C(=O)NC2CCCCC2)Cn2c(ccc2-c2ccccc2)C(=O)N1CCCN1CCOCC1 (stereo unspecified),i
SMILES,Methyltransferases
O=C(CCc1nnc2n(Cc3ccccc3Cl)c(=O)c3ccccc3n12)NCCN1CCCC1,i
CC(=O)Nc1c2n(c3ccc(F)cc13)CC(C)(C(=O)NC1CCCC1)N(C1CCC(C)CC1)C2=O (stereo unspecified),i
O=S(=O)(N[C@H]1CCCC[C@@H]1N1CCOCC1)c1ccc(Cl)cc1,i
CCCN1C(=O)c2ccccc2CC1(C)C(=O)NC1CCCCCCC1 (stereo unspecified),i
COC(=O)c1ccc(=O)c2nc3/c(=C/O)c(O)cc(=O)c3[nH]c12,+
O=C(N[C@H](Cc1cscn1)C(=O)N[C@@H](CC1CCCCC1)[C@@H](O)[C@@H](O)C1CC1)c1nc2ccccc2[nH]1,i
Cc1ccc(NS(=O)(=O)c2ccc3[nH]c4c(c3c2)CCCC4)c(Br)c1,i
COc1ccc2c(c1)c(NC(C)=O)c1n2CC(C)(C(=O)NC2CCCCCC2)N(CCC(C)C)C1=O (stereo unspecified),i
OCC1(CC2CC2)CCCN(Cc2ccc(C(F)(F)F)nc2)C1 (stereo unspecified),i
Cc1ncoc1C(=O)N1C[C@@H](COCC2CC2)[C@H](c2ccccn2)C1,i
CN1C(=O)c2cc(C(=O)NCc3ccccc3F)nn2CC1(C)C(=O)NC1CCCC1 (stereo unspecified),i
CCCCN1C(=O)c2cc(C(=O)NC3CCCC3)nn2CC1(C)C(=O)NC1CCCC1 (stereo unspecified),i
CC(C/C=C/C(C)(C)O)C1CCC(C)(O)C(O)C1 (stereo unspecified),i
COc1cc(C2c3cc4c(c(O)c3CC(CO)C2C(=O)O)OCO4)cc(OC)c1O (stereo unspecified),i
CC(C)OCCCNC(=O)c1cc2n(n1)CC(C)(C(=O)NCc1ccccc1)N(C)C2=O (stereo unspecified),i
Oc1cccc(-c2nc(N3CCOCC3)c3sccc3n2)c1,u
COc1ccc2cc3n(c2c1)CC(C)(C(=O)NC1CCCCC1)N(Cc1ccc(C)cc1)C3=O (stereo unspecified),i
CCC(C)NC(=O)c1ccc2c(=O)n(CCC(C)C)c3nn(CC(=O)c4ccc(OC)cc4)c(=O)n3c2c1 (stereo unspecified),i
CCOC(=O)c1ccc2c(c1)[C@@H]1C=CC[C@@H]1[C@H](c1ccc(C(C)C)cc1)N2,i
Cn1c(=O)n(C)c2cc(S(=O)(=O)Nc3cccc(Br)c3)ccc21,i
CC(=O)O[C@@]1(C)C[C@@H](O)[C@]2(O)C=CO[C@@H](O[C@@H]3O[C@H](CO)[C@@H](O)[C@H](O)[C@H]3O)[C@@H]21,i
CC(=O)Nc1sc2c(c1-c1ccc(N3CCN(C)CC3)cc1)CCNC2,u
Clc1ccc(-c2cnc([C@@H]3COCCN3Cc3ccccc3)[nH]2)s1,i
Cc1cnc(-c2ccccc2)n1C1CCN(S(=O)(=O)c2cccc(F)c2)CC1,i
CCc1ccc(S(=O)(=O)c2nnn3c2nc(NCC2CCCO2)c2cc(Cl)ccc23)cc1 (stereo unspecified),i
SMILES,Methyltransferases
CC(C)CNC(=O)c1ccc2c(=O)n(C(C)C)c3nn(CC(=O)N(C)c4ccc(F)cc4)c(=O)n3c2c1,i
COc1cccc(-c2cccc(C(=O)N3CCN([S+](=O)([O-])c4ccc(C)cc4)CC3)c2)c1,i
CC1CCCC(NC(=O)C2(C)Cn3c(ccc3-c3ccco3)C(=O)N2Cc2ccco2)C1C (stereo unspecified),i
CC1(C(=O)NC2CCCCCCC2)Cc2ccccc2C(=O)N1Cc1cccs1 (stereo unspecified),i
COc1ccccc1CNC(=O)c1ccc2c(c1)N(C)C1CCCCN1C2=O (stereo unspecified),i
CC(C)(O)C1OC1C1=CC(=O)C2(C)OC2C1O (stereo unspecified),i
CC(=O)Nc1c2n(c3ccc(F)cc13)CC(C)(C(=O)NC1CCCCC1)N(Cc1ccco1)C2=O (stereo unspecified),i
CCc1cccc(N2C(=O)c3cc(-c4ccc(OC)cc4)nn3CC2(C)C(=O)NCc2ccccc2OC)c1 (stereo unspecified),i
COc1ccc(N(C(=O)c2cccs2)S(=O)(=O)c2ccc3c(c2)n(C)c(=O)n3C)cc1,i
O=C(CCc1nnc2n(Cc3ccccc3Cl)c(=O)c3ccccc3n12)NCc1ccc(F)cc1,i
C[C@@H]1C[C@H]2[C@@H]3CCC4=CC(=O)C=C[C@]4(C)[C@@]3(F)[C@@H](O)C[C@]2(C)[C@@]1(O)C(=O)COP(=O)(O)O,i
Cc1cnc(C2CCC2)n1C1CCN(C(=O)CCC2CCCC2)CC1,+
CCCn1c(=O)c2cc(F)ccc2n2c(SCC(=O)NC(C)CC)nnc12 (stereo unspecified),i
CCC1CCCCN1CCCN1C(=O)c2cc3sccc3n2CC1(C)C(=O)NC1CCCCCC1 (stereo unspecified),i
CCN(CC)Cc1cccc(/C=C/c2nc3ccc(F)cc3c(=O)n2-c2ccccc2Cl)n1,u
COc1ccc(CNC(=O)Cn2ccc3cc(S(=O)(=O)N4CCCC4)ccc32)cc1,i
CC1(C(=O)NC2CCCCCC2)Cn2c(ccc2-c2ccco2)C(=O)N1Cc1ccccc1Cl (stereo unspecified),i
N#CC(c1ccnc(OCc2ccc(CN3CCOCC3)cc2)n1)c1nc2ccccc2s1 (stereo unspecified),i
CC1(C(=O)NC2CCCCCCC2)Cn2c(ccc2-c2ccco2)C(=O)N1Cc1ccccc1Cl (stereo unspecified),i
Cc1ccc(N(C)S(=O)(=O)c2ccc3[nH]c4c(c3c2)CCCC4)cc1,i
CCOc1ccc(C(=O)Cn2nc3n(CCC(C)C)c(=O)c4ccc(C(=O)NC(C)C)cc4n3c2=O)cc1,i
COCC(=O)N1CCN(Cc2ccccc2-c2ccc(C)c(Cl)c2)CC1,i
COc1ccccc1N1CCN(S(=O)(=O)c2ccc3c(c2)n(C)c(=O)n3C)CC1,i
CCC(C)/C=C(C)/C=C/C1=CC2=C(Cl)C(=O)C(C)(OC(C)=O)C(=O)C2=CN1C(CCCN=C(N)N)C(=O)O (stereo unspecified),i
Cn1c(=O)c2ccc(C(=O)NC3CCCCC3)cc2n2c(=O)n(CC(=O)Nc3ccccc3Cl)nc12,i
COc1ccc(CCN(CC2CCN(C)CC2)C(=O)C2CC23CCC3)cc1 (stereo unspecified),i
COc1ccc(-c2cc(-c3ccc4c(c3)NC(=O)CO4)nc3c2COc2ccc(C)cc2-3)cc1,u
Cc1ccccc1NC(=O)CSc1nnc2n(CC(C)C)c(=O)c3cc(F)ccc3n12,i

# 2 of the compounds above, as tab-separated lines:
smiles	Methyltransferases
CCN(CC)Cc1cccc(/C=C/c2nc3ccc(F)cc3c(=O)n2-c2ccccc2Cl)n1	u
COc1ccc(CNC(=O)Cn2ccc3cc(S(=O)(=O)N4CCCC4)ccc32)cc1	i

# Bioassay records deposited in PubChem by National Center for Advancing Translational Sciences (NCATS).
